Screens: PubChem BioAssay, several laboratories
RecA splice inh = Mtb RecA intein splicing inhibition; P9WHJ3; cell-free RecA intein splicing, fluorescence; inhibition, %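 (about 9 µM by stock and volumes)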; actives 0.75% (n = 290,000); AID 2221; in the data active = inhibition above about 30%; inconclusive = no clear call, values can overlap the other calls;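 note: 0% = vehicle wells and 100% = reference inhibitor control wells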
Target sequence (P9WHJ3 whole entry, looked up, canonical isoform): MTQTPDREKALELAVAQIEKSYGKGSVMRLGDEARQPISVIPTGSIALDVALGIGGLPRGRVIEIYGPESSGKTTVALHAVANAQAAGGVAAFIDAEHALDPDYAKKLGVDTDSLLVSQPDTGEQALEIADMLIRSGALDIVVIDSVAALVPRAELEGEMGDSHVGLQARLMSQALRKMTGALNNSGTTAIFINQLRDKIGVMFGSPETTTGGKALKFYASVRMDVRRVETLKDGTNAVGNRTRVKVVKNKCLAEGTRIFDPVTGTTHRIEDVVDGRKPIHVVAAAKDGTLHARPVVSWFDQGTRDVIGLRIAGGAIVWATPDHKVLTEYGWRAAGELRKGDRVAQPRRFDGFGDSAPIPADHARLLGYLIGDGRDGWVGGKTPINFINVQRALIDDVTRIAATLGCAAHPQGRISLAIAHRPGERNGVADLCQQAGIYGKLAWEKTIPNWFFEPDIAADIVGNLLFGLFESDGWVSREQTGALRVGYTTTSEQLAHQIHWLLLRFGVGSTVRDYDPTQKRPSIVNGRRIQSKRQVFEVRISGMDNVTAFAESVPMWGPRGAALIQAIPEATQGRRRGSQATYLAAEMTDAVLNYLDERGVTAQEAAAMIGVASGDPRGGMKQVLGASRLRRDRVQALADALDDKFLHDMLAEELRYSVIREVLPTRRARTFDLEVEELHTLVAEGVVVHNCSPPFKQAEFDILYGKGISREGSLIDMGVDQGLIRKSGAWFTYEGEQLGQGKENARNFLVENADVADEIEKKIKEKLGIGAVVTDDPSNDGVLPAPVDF
Mtb growth = M. tuberculosis H37Rv growth inhibitors, H37Rv strain (AID 1626); M. tuberculosis H37Rv growth inhibition; higher % means a stronger effect; one-dose inhibition, % at 10 µM; IC50 in µM for titrated hits; actives 0.95% (n = 220,000);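 active = confirmed in a dose series; inconclusive = inhibition above 80% but not taken into the dose series; inactive = below 80% or under 30% at every dose of the series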;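 note: bacteria incubated seven days before Alamar blue readout; 0% = bacteria only wells and 100% = bacteria with antibiotic wells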
Arbovirus inh = blocks arbovirus infection; arbovirus infection cell-based antiviral screen; inhibition, % at 10 µM; actives 0.37% (n = 200,000); AID 1251;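 active = inhibition from about 30%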;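 note: bluetongue infection of BSR cells; cell survival read as ATP light after 72 h; 0% = infected wells without compound and 100% = uninfected wells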
YopH inh = blocks Yersinia enterocolitica YopH tyrosine phosphatase; fluorescence Ex485/Em525; actives 0.16% (n = 140,000); AID 898; inhibition, %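 (about 10 µM by stock and volumes)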;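 active = inhibition of 50% or more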;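 note: controls were vehicle for no effect and minimum signal wells for full effect; inactives centre near -20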
Mtb bLac sens = beta-lactam sensitization of Mtb H37Rv. M. tuberculosis H37Rv growth with meropenem, percent inhibition; hits of this screen are not shown here. inhibition, % at 25 µM. actives 0.27% (n = 330,000). AID 434955;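 active = about 74% or more and at least 40 points above the plate without the antibiotic, then above 30% in a dose series; inconclusive = first-round hits that could not be retested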;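 note: growth measured after seven days incubation then overnight dye step; 0% = bacteria only wells and 100% = bacteria with antibiotic; twin plates without the antibiotic show which effects depend on it; some results filed as inactive read as strong as hits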
Arbovirus inh repeat = further read-out of Arbovirus inh, marked with its call; inhibition, %; measured here: 10K subset replicate screen; many hits read low in the repeat;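 first of two repeat runs on a subset; 0% = infected and 100% = uninfected wells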
The depositor's hits bear a star. A portion of the library; the hit share may differ from the screen's.

Results for OC(c1ccccc1)C(O)c1ccccc1 (centres undefined) ?
RecA splice inh: -0.5; Mtb bLac sens: -6

Results for CCOc1ccc(Br)cc1S(=O)(=O)Nc1ccc(N2CCOCC2)cc1 ?
Mtb growth: -7%; Arbovirus inh: 8; YopH inh: -25; Mtb bLac sens: -2

What do the screens show for `C/C(=N/Oc1nc(C)cc(C)n1)c1ccccc1`?
RecA splice inh: 0.6; Mtb growth: -5%; Arbovirus inh: 8; YopH inh: -25; Mtb bLac sens: -6

How did O=C(CNC(=O)c1cccs1)Nc1ccncc1 do in these assays?
RecA splice inh: 0.2; Mtb bLac sens: 3

What do the screens show for `Cc1ccccc1NC(=O)NCCCCc1ccccc1`?
RecA splice inh: 0.8; Mtb bLac sens: -15

Results for Cc1c(OC(C)C(=O)NCc2ccccn2)ccc2c3c(c(=O)oc12)CCC3 (centres undefined) ?
RecA splice inh: 0.2; Mtb bLac sens: 99

Results for Cc1nc2sc(C(c3ccco3)N3CCN(c4ccccc4)CC3)c(O)n2n1 (centres undefined) ?
RecA splice inh: 15; Mtb growth: -5%; Arbovirus inh: 6; YopH inh: -16; Mtb bLac sens: -2; Arbovirus inh repeat: 7

What do the screens show for `O=C(Nc1ccn(-c2ccccc2)n1)c1ccccc1Br`?
RecA splice inh: 1.5; Mtb growth: 1%; Arbovirus inh: -4; YopH inh: 10; Mtb bLac sens: 2

What do the screens show for `O=C(CCC(=O)NC1CCCCCC1)Nc1nnc(C(F)(F)F)s1`?
RecA splice inh: -0.4; Mtb growth: 28%; Arbovirus inh: 12; YopH inh: -14; Mtb bLac sens: 99

How did OCC1(Cc2ccc(F)cc2)CCCN(Cc2ccc(F)cc2Cl)C1 (centres undefined) do in these assays?
RecA splice inh: 5.5; Mtb bLac sens: 6

Results for O=C(Nc1nccs1)c1ccccc1N=Cc1ccccc1 ?
RecA splice inh: -6.7; Mtb growth: 1%; Arbovirus inh: -17; YopH inh: -50; Mtb bLac sens: 0

How did Cc1cc(/C=N/O)c(C)n1-c1ccccc1 do in these assays?
RecA splice inh: 1.2; Mtb growth: 9%; Arbovirus inh: 8; YopH inh: -22; Mtb bLac sens: 0

What do the screens show for `COc1ccc2c(c1)C(=NO)c1cc(OC)ccc1-2`?
RecA splice inh: 4.0; Mtb growth: -10%; Arbovirus inh: -11; YopH inh: -19; Mtb bLac sens: -2

How did COc1cccc(CC2CC(=O)N(CCc3ccc4c(c3)OCO4)C2=O)c1 (centres undefined) do in these assays?
RecA splice inh: 2.8; Mtb growth: 0%; Arbovirus inh: -6; YopH inh: -15; Mtb bLac sens: -8

What do the screens show for `CN(C)C(=O)c1ccc2c(c1[N+](=O)[O-])C(=O)c1ccccc1C2=O`?
RecA splice inh: 55*; Mtb growth: 4%; Arbovirus inh: -26; YopH inh: -6; Mtb bLac sens: 29

What do the screens show for `COc1ccc(NC(=S)N(CCN2CCOCC2)Cc2cc3cc4c(cc3[nH]c2=O)OCO4)cc1`?
RecA splice inh: -1.1; Mtb growth: 2%; Arbovirus inh: 6; Mtb bLac sens: -5

How did COc1ccc(OCc2cc(C(=O)NCC3CCCCO3)no2)c(Cl)c1 (centres undefined) do in these assays?
RecA splice inh: -2.9; Mtb bLac sens: 1

How did O=C(O)c1ccc(OCC(F)(F)F)nc1 do in these assays?
RecA splice inh: -0.2; Mtb growth: -5%; Mtb bLac sens: -1

What do the screens show for `CCCN1CCN(S(=O)(=O)c2ccc(-c3cc(C)no3)s2)CC1`?
RecA splice inh: -0.1; Mtb bLac sens: -4

Results for C(=C\n1nnc2ccccc21)/c1ccccn1 ?
RecA splice inh: -1.8; Mtb bLac sens: -5

Quoted at random: 3 compounds from above.
What do the screens show for `COc1ccc2c(c1)C(=NO)c1cc(OC)ccc1-2`?
RecA splice inh: 4.0; Mtb growth: -10%; Arbovirus inh: -11; YopH inh: -19; Mtb bLac sens: -2

How did COc1cccc(CC2CC(=O)N(CCc3ccc4c(c3)OCO4)C2=O)c1 (centres undefined) do in these assays?
RecA splice inh: 2.8; Mtb growth: 0%; Arbovirus inh: -6; YopH inh: -15; Mtb bLac sens: -8

What do the screens show for `O=C(CCC(=O)NC1CCCCCC1)Nc1nnc(C(F)(F)F)s1`?
RecA splice inh: -0.4; Mtb growth: 28%; Arbovirus inh: 12; YopH inh: -14; Mtb bLac sens: 99

(list continues)
What do the screens show for `Fc1cc2[nH]c(=S)[nH]c2c(Br)c1N1CCSCC1`?
RecA splice inh: 5.6; Mtb bLac sens: 3

What do the screens show for `COc1ccc(-c2cc(-c3ccccc3)n3ncnc3n2)cc1`?
RecA splice inh: 1.5; Mtb growth: 6%; Arbovirus inh: 4; YopH inh: 10; Mtb bLac sens: 96

What do the screens show for `COc1cc(-c2nnc(COC(=O)CSCC(=O)Nc3cc(C)on3)o2)cc(OC)c1OC`?
RecA splice inh: -1.8; Mtb bLac sens: 0

How did N/C(=N\OC(=O)Oc1ccccc1)c1cccc([N+](=O)[O-])c1 do in these assays?
RecA splice inh: 0.9; Mtb growth: 1%; Arbovirus inh: 3; YopH inh: 8; Mtb bLac sens: inconclusive

Results for CC1(C(=O)OCC(=O)NNC(=O)COc2ccc(Cl)cc2)CC1(Cl)Cl (centres undefined) ?
RecA splice inh: -0.4; Mtb bLac sens: 4

What do the screens show for `Cc1cc(C(=O)COC(=O)c2ccc[nH]c2=O)c(C)n1-c1ccccc1`?
RecA splice inh: -0.2; Mtb growth: -3%; Arbovirus inh: 2; YopH inh: -23; Mtb bLac sens: 16

How did COc1ccc(/C=C/C(=O)c2ccc3c(c2)OCCO3)cc1[N+](=O)[O-] do in these assays?
RecA splice inh: 7.0; Mtb growth: 5%; Arbovirus inh: 12; YopH inh: -36; Mtb bLac sens: 0

Results for CCOC(=O)c1c(C)nn(-c2ncccc2NC(=O)CCC(=O)O)c1C ?
RecA splice inh: -0.6; Mtb growth: 4%; Mtb bLac sens: -11

How did Cc1ccc2cccc(O)c2[n+]1[O-] do in these assays?
RecA splice inh: -2.8; Mtb growth: 15%; Arbovirus inh: 2; YopH inh: 2; Mtb bLac sens: -4

How did Cc1ccc(N2CC(C(=O)Nc3ccc(S(=O)(=O)N4CCOCC4)cc3)CC2=O)cc1 (centres undefined) do in these assays?
RecA splice inh: 2.8; Mtb growth: -5%; Arbovirus inh: 13; YopH inh: -26; Mtb bLac sens: 0

How did CCCCCn1c(CN2CCN(c3cccc(Cl)c3)CC2)nc2c1c(=O)n(C)c(=O)n2C do in these assays?
RecA splice inh: 2.1; Mtb growth: 11%; YopH inh: -19; Mtb bLac sens: 72

How did C#CCN1c2ccccc2Sc2cccnc21 do in these assays?
RecA splice inh: 2.8; Mtb bLac sens: -5

Results for Nc1nnc(-c2ccccc2)s1 ?
RecA splice inh: -2.2; Arbovirus inh: 6; YopH inh: -29; Mtb bLac sens: 5

What do the screens show for `CCOc1ccccc1N(CC(=O)NCC1CCCO1)C(=O)CNS(=O)(=O)c1ccccc1` (centres undefined)?
RecA splice inh: -0.2; Mtb growth: -5%; Arbovirus inh: -2; Mtb bLac sens: 0

What do the screens show for `O=C1CCCN1CCCNc1ccc(S(=O)(=O)N2CCCCC2)cn1`?
RecA splice inh: 0.5; Mtb growth: -2%; Arbovirus inh: 10; YopH inh: -47; Mtb bLac sens: inconclusive

Results for COC(=O)C1=C(O)/C(=C\c2ccc(CNS(=O)(=O)c3ccccc3)o2)N=C1C ?
RecA splice inh: -6.4; Mtb growth: -6%; Arbovirus inh: 10; YopH inh: -29; Mtb bLac sens: 4

How did Cc1ccc2c(c1)cc(C(=O)NCc1ccccc1)n2C do in these assays?
RecA splice inh: -0.3; Mtb bLac sens: 3

Results for Cc1ccc(C(=O)NC2CCCCNC2=O)cc1 (centres undefined) ?
RecA splice inh: -0.6; Mtb growth: -6%; Mtb bLac sens: -2

Results for O=C(CSc1nnc(-c2cccnc2)n1CCc1ccccc1)N1CCCCC1 ?
RecA splice inh: -2.6; Mtb growth: -3%; Arbovirus inh: -3; YopH inh: -13; Mtb bLac sens: -2

What do the screens show for `O=C(COc1ccc(Br)cc1)Nc1ccc(-c2nnc(-c3ccco3)o2)cc1`?
RecA splice inh: 5.5; Mtb growth: -5%; Arbovirus inh: 1; YopH inh: 8; Mtb bLac sens: 10

What do the screens show for `CC(=O)Nc1cccc(NC(=O)CCCC(=O)O)c1`?
RecA splice inh: 3.2; Mtb growth: -8%; Arbovirus inh: 0; YopH inh: -7; Mtb bLac sens: -4

How did CCOC(=O)CNC(=O)c1sc2ncnc(N3CCc4ccccc4C3)c2c1C do in these assays?
RecA splice inh: 7.7; Mtb growth: 3%; Arbovirus inh: 7; YopH inh: -12; Mtb bLac sens: 91

What do the screens show for `CC12CCC(C/C1=N/O)C2(C)CBr` (centres undefined)?
RecA splice inh: 1.6; Mtb growth: -11%; Mtb bLac sens: -1

Results for CC(C)c1nc2c(c(=O)c3ccccc3n2C)c(=O)n1-c1ccc(F)cc1 ?
RecA splice inh: -1.9; Mtb growth: 4%; Arbovirus inh: 5; YopH inh: -24; Mtb bLac sens: -4

How did CCOc1ccc(-c2nc3ccccc3c(=O)o2)cc1 do in these assays?
RecA splice inh: 2.4; Mtb growth: 4%; Arbovirus inh: 17; Mtb bLac sens: 93

How did C=CCn1c(=O)c2ccccc2n2c(SCc3nc4ccccc4s3)nnc12 do in these assays?
RecA splice inh: 1.0; Mtb growth: -2%; Arbovirus inh: 3; YopH inh: 0; Mtb bLac sens: -5

How did C=C1C2C[C@H](O)C(C)(C)[C@@]2(O)[C@H](O)C[C@]23C[C@@](C)(O)[C@H](CC[C@H]12)[C@H]3O (some centres undefined) do in these assays?
RecA splice inh: -2.2; Mtb growth: -9%; Arbovirus inh: 4; YopH inh: -8; Mtb bLac sens: -16

How did C#CCOCCOCCOCCNc1nc(N2CCN(C(=O)[C@H](C(C)C)n3cc(CCO)nn3)CC2)nc(N2CCN(C(=O)[C@H](C(C)C)n3cc(CCO)nn3)CC2)n1 do in these assays?
RecA splice inh: 1.3; Mtb growth: -9%; Arbovirus inh: 1; YopH inh: -21; Mtb bLac sens: -8

How did CCN1/C(=C2/SC(=S)N(NC(C)=O)C2=O)Sc2ccc(Cl)cc21 do in these assays?
RecA splice inh: -16; Mtb bLac sens: 4

What do the screens show for `Cc1ccc(NC(=O)OCCN2CCN(S(=O)(=O)c3ccc(C)cc3)CCC2=O)cc1`?
RecA splice inh: 2.3; Mtb growth: -13%; Arbovirus inh: -1; YopH inh: -38; Mtb bLac sens: -9

How did CC1CCCN(c2c3c(nc4ccccc24)CCCC3)C1 (centres undefined) do in these assays?
RecA splice inh: 6.8; Mtb bLac sens: 7

How did Cc1ccc(NC(=O)N(Cc2nc3ccccc3c(=O)[nH]2)Cc2cccs2)cc1 do in these assays?
RecA splice inh: 1.0; Mtb growth: 8%; Arbovirus inh: 17; YopH inh: -20; Mtb bLac sens: 52

Results for O=C(NCCc1ccccc1)C1CCCN(S(=O)(=O)c2cnc[nH]2)C1 (centres undefined) ?
RecA splice inh: 0.3; Mtb growth: -9%; Arbovirus inh: -4; YopH inh: 28; Mtb bLac sens: 6

What do the screens show for `Cc1ccc(N=Nc2cc(C)ccc2O)c(C)c1`?
RecA splice inh: 4.1; Mtb bLac sens: 3

Results for CCCCNC(=O)CCNS(=O)(=O)c1ccc(Br)cc1 ?
RecA splice inh: 3.8; Mtb growth: 15%; Arbovirus inh: -2; YopH inh: 11; Mtb bLac sens: -3

How did COC(=O)C(Oc1ccc2c(-c3ccc(OC)cc3)cc(=O)oc2c1)c1ccccc1 (centres undefined) do in these assays?
RecA splice inh: 3.0; Mtb growth: 15µM*; Arbovirus inh: -8; YopH inh: -11; Mtb bLac sens: 95

Results for CCn1c(=O)n(CC)c2cc(N3CCCC3)c(NC(=O)c3cccc(OC)c3)cc21 ?
RecA splice inh: -1.6; Mtb bLac sens: 37

How did O=C(NCCCn1ccnc1)c1ccc2nccnc2c1 do in these assays?
RecA splice inh: -1.4; Mtb bLac sens: -14

How did CCOC(=O)CSc1nc2ccc(S(=O)(=O)N3CCOCC3)cc2[nH]1 do in these assays?
RecA splice inh: -1.1; Mtb growth: -1%; Arbovirus inh: -7; YopH inh: -2; Mtb bLac sens: 5

Results for CCn1cc(SCC(N)=O)c2ccccc21 ?
RecA splice inh: 9.5; Mtb growth: 1%; Arbovirus inh: 3; YopH inh: 13; Mtb bLac sens: -4; Arbovirus inh repeat: -2

Results for COc1ccccc1-n1cc(-c2ccc(Br)cc2)[nH]c1=S ?
RecA splice inh: 12; Mtb bLac sens: 6

An excerpt from above in order of heavy-atom count, highest first:
Results for CCn1c(=O)n(CC)c2cc(N3CCCC3)c(NC(=O)c3cccc(OC)c3)cc21 ?
RecA splice inh: -1.6; Mtb bLac sens: 37

How did CCN1/C(=C2/SC(=S)N(NC(C)=O)C2=O)Sc2ccc(Cl)cc21 do in these assays?
RecA splice inh: -16; Mtb bLac sens: 4

How did CCOc1ccc(-c2nc3ccccc3c(=O)o2)cc1 do in these assays?
RecA splice inh: 2.4; Mtb growth: 4%; Arbovirus inh: 17; Mtb bLac sens: 93
